Screens deposited in PubChem by Johns Hopkins Ion Channel Center.
KCNQ2 pot – enhances the rat KCNQ2 potassium channel | O88943 | CHO-K1 KCNQ2, FluxOR thallium flux fluorescence; stronger effect = higher value | B-score at 10 µM | hit rate 0.54% among 310,000 | AID 2239;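 active = fluorescence ratio B-score at least 3 SD of library B-scores, with initial fluorescence B-score within 3 SD, cut at about 5.3 in these data; same plate scores as AID 2156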;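 also: B-score of peak minus minimum over baseline fluorescence ratio after K+ and Tl+ stimulus; positive B-score means potentiation of KCNQ2 with more thallium influx and brighter signal; only the inactives scoring about 0 or higher are listed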
Target sequence (O88943 whole entry, looked up): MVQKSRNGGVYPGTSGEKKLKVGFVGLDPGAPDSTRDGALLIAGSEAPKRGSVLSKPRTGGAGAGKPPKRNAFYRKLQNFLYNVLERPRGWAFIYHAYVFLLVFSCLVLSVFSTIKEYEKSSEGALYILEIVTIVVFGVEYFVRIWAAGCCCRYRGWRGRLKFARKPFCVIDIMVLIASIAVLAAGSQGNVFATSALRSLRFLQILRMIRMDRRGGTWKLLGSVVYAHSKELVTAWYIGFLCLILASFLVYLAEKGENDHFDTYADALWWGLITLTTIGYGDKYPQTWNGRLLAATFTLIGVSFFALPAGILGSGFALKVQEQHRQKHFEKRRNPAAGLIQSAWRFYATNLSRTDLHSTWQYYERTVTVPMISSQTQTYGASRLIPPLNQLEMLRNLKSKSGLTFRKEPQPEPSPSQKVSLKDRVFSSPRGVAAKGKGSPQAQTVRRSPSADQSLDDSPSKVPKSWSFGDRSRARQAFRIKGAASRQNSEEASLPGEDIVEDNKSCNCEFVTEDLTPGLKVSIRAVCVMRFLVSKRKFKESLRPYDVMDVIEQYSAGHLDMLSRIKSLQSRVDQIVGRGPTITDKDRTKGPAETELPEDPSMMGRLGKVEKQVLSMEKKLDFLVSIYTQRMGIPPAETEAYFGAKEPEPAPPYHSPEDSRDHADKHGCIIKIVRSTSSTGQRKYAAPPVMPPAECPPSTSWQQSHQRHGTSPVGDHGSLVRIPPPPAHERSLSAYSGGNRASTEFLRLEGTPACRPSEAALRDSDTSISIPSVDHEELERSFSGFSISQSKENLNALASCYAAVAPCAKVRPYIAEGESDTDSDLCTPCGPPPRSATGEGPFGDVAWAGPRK
KCNQ2 pot baseline – further read-out of KCNQ2 pot, marked with its call; B-score; compound at 10 µM; measured here: initial fluorescence intensity artifact check;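 brightness before thallium and not channel activity; 0 = typical well and far values either way flag optical interference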
Numbers without * were called inactive. Not all compounds are listed; count on the stated rates, not on these rows.

structure,KCNQ2 pot,KCNQ2 pot baseline
COc1ccc(NS(=O)(=O)c2ccc(NC(=O)C3CCCO3)cc2)cc1 (stereo unspecified),0.45,-0.63
CCN(CC)S(=O)(=O)c1ccc(NC(=O)CO/N=C(\N)c2ccccc2)cc1,0.26,0.98
C=CCN1C(=O)CSC1=Nc1cccc(O)c1,0.15,-2.43
O=C(O)c1cncc(Br)c1,0.62,1.33
CC(=O)N1CCc2c(sc(NC(=O)C3COc4ccccc4O3)c2C(N)=O)C1 (stereo unspecified),0.07,-0.02
O=C(O)c1ccccc1N(Cc1ccccc1)C(=O)COc1ccccc1,2.11,-0.15
Cc1cccc(OCC(=O)NCC(=O)N/N=C/c2ccc(O)cc2O)c1,0.63,1.52
O=C1N/C(=C/c2cccn2-c2ccccc2)C(=O)N1Cc1ccc(F)cc1,0.05,-1.64
COc1ccc(C(=O)Nc2cc(=O)n(C)c(=O)n2C)cc1OC,0.87,-0.1
Cc1cc(NC(=O)c2nn(C)c(C)c2[N+](=O)[O-])no1,0.01,0.23
COc1ccc(C(=O)N2CCC(C(=O)Nc3ccc(C)cc3)CC2)cc1,0.19,-0.28
CC(C)Oc1ccc(CNCC2(O)CCOC(C)(C)C2)cc1 (stereo unspecified),0.77,-0.01
CC(C)c1ccc(NC(=O)NC2(C(=O)NCc3cccnc3)CCCCC2)cc1,0.09,-0.04
Cc1nc2ccn(Cc3ccccc3)c(=O)c2cc1C(=O)N1CCN(c2ccccc2)CC1,0.03,-1.55
COCCNC(=O)c1cccc(OC2CCN(Cc3ccc(F)cc3OC)CC2)c1,0.92,0.84
O=C(Nc1cccc(NC(=O)c2c(F)cccc2F)n1)c1c(F)cccc1F,0.89,-0.77
CCOC(=O)c1c(NC(=O)c2c(C)noc2C)sc2c1CCCCC2,0.42,2.46
O=C(NCc1ccc2c(c1)OCO2)C1CC(=O)N(C2CCCCCCC2)C1 (stereo unspecified),0.92,-0.71
COc1ccc(C)cc1NC(=O)COC(=O)c1c(C)noc1C,0.91,1.83
Cc1cc(C(=O)Cn2nnc3ccccc3c2=O)c(C)n1-c1ccccc1F,0.08,-3.49
COc1ccc(-c2csc3ncnc(Cl)c23)cc1,0.77,0.49
NS(=O)(=O)c1ccc(NC(=O)COC(=O)c2cc3ccccc3cc2O)cc1,0.02,-0.14
O=C(NNC(=O)c1ccccc1F)c1cccc(-n2cccc2)c1,1.4,-0.03
O=C(NCc1ccco1)C1CCN(c2nc3ccccc3n2Cc2ccc(F)cc2)CC1,0.56,-0.36
Cc1ccc(NC(=O)Cn2c(=O)c(C)nc3ccccc32)cc1,0.01,-0.96
COCCCNCCCCOc1ccccc1-c1ccccc1,1.52,-1.41
Cc1c(C(=O)N2CCOCC2)sc(NC(=O)Cc2ccccc2)c1C#N,0.51,0.07
CCOC(=O)C1=C(C)NC(=O)NC1c1ccc(C)o1 (stereo unspecified),0.85,-0.55
COc1cccc(NC(=O)CCC2CCN(C(=O)Cc3cccc(F)c3)CC2)c1,0.17,0.32
Cc1ccc(S(=O)(=O)N2CC(=O)Nc3ccccc32)cc1C,0.14,-0.76
Cc1nc(N)sc1-c1csc(Nc2ccc(Cl)cn2)n1,0.76,1.17
COc1ccc(S(=O)(=O)NNC(=O)c2cc3ccccc3o2)cc1,1.05,-1.82
COc1ccc(OC)c(C2NC(=S)NC(C)=C2C(=O)Nc2ccccn2)c1 (stereo unspecified),0.57,0
Cc1ccc(-n2c(=O)c3sccc3n(CC(=O)N3CCCC3)c2=O)cc1,0.05,0.05
COc1ccc(/C(C)=N/NC(=O)c2ccc(NS(=O)(=O)c3cccs3)cc2)cc1,1.29,0.58
Cc1ccc2oc(Nc3nc(-c4ccccc4)cc(=O)[nH]3)nc2c1,1.04,-0.6
CCOc1ccc(NC(=S)N2CCC(C(N)=O)CC2)cc1,0.07,0
COCc1ccc(C(=O)N(C)C2CCCN(Cc3ccccc3F)C2)o1 (stereo unspecified),2.16,-0.45
COc1ccc(CNC(=O)COC(=O)c2ccccc2OCC(=O)Nc2ccc(SC(F)F)cc2)cc1,1.68,-0.96
CN(Cc1ccc(F)cc1Cl)S(=O)(=O)c1cccs1,0.09,-0.9
COc1ccc2ncn(-c3ccccc3)c2c1,0.77,1.49
O=C1CSC(c2ccccc2F)N1CCN1CCCCC1 (stereo unspecified),0.16,-1.14
COc1cccc(C(C(=O)NCc2ccco2)N(C(=O)Cn2nnc3ccccc32)C2CC2)c1OC (stereo unspecified),0.64,-1.42
Cc1ccc(C(=O)OCC(=O)N2CCC(c3ccccc3)=N2)c(C)c1,0.28,1.5
CC1=C(n2nnc([N+](=O)[O-])n2)C(c2cccnc2)C(C#N)=C(N)O1 (stereo unspecified),0.57,-0.02
COc1ccc(NC(=S)NCCSc2ccc(C)cc2)c(OC)c1,0.09,-0.97
O=C(NC1CCCCCC1)C1CCN(c2nc3ccccc3o2)CC1,0.49,-0.72
Cc1ccc(NC(=O)CSc2ncccn2)c([N+](=O)[O-])c1,0.51,-0.61
O=C(Nc1ccccn1)NC(C(F)(F)F)C(F)(F)F,1.19,0.69
CC1(c2ccc3ccccc3c2)NC(=O)N(CC(=O)NCC(C)(C)N2CCOCC2)C1=O (stereo unspecified),0.88,-1.5

Next section.
structure,KCNQ2 pot,KCNQ2 pot baseline
COc1ccc(CCNC(=O)C2CCN(S(=O)(=O)c3cccc4nonc34)CC2)cc1OC,0.64,-0.12
CC1(C(=O)NC(=S)N(Cc2ccccc2)c2ccccn2)CC1(Cl)Cl (stereo unspecified),0.32,-0.81
CCc1nc(Nc2ccc3nccnc3c2)c2oc3ccccc3c2n1,0.01,-0.57
Clc1ccc(CONc2ncnc3nonc23)c(Cl)c1,6.88*,0.03*
CCC1CCCCN1CCCNC(=O)c1ccc2c(c1)c(C)c(C)n2C (stereo unspecified),0.33,0.41
COc1ccc(OC)c(C(c2nnnn2Cc2ccccc2)N2CCN(C)CC2)c1 (stereo unspecified),0.39,0.02
COc1ccc(CNC(=O)c2cc(-c3ccc(OC)c(OC)c3)on2)cc1,1,-0.93
Cc1cccc(NC(=S)N2CCC(N(C)CC3CCCO3)CC2)c1 (stereo unspecified),0.61,-0.34
O=S(=O)(Nc1ccncc1)c1cc(Cl)c(Cl)cc1Cl,0.55,0.98
O=C(c1ccco1)N1CCC(c2ccccc2)C1 (stereo unspecified),1.26,-1
Cn1c(SCC(=O)NCc2ccco2)nnc1-c1cccs1,0.36,0.05
CCCC(=O)Nc1ccc2oc(-c3cccnc3)nc2c1,0.38,-0.2
O=C(O)c1cccc([N+](=O)[O-])c1C(=O)Nc1nc2ccccc2s1,1.47,-0.57
Cc1ccc2c(CC(=O)NCc3ccco3)coc2c1C,0.15,-0.18
COC(=O)\C(C(C)=O)=C(/C=C/C=C/N(C)C)N(C)C,1.84,-0.01
COc1cccc(-c2nn3c(-c4cccc(C)c4)nnc3s2)c1,0.04,0.04
COc1ccc(/C=C/C(=O)OCC(=O)NC2CCCC(C)C2C)cc1S(=O)(=O)N1CCOCC1 (stereo unspecified),0.03,1.89
Fc1ccc(N2CCN(c3cnc4ccccc4n3)CC2)cc1,0.08,-0.39
CCN(CC)S(=O)(=O)c1cccc(-c2cn3cccnc3n2)c1,1.32,1.29
Cn1c(=O)c2c(SCC(=O)NCc3ccco3)nc(CC(C)(C)C)nc2n(C)c1=O,2.67,-1.15
Cc1cc(-c2ccccc2)c(C#N)c(N)n1,0.33,1.41
CC(=O)c1cccc(NC(=O)Nc2cnn(Cc3ccc(F)cc3)c2)c1,0.37,0.22
CCc1ccccc1N(CC(=O)NCCSCc1ccco1)S(C)(=O)=O,0.02,0.18
Cc1ccc(CNC(=O)C2CCN(S(=O)(=O)c3cccnc3)CC2)cc1,0.05,-1.26
CCCNC(=O)NC(=O)COC(=O)c1cccc(NS(=O)(=O)c2ccc(F)c(F)c2)c1,0.83,-1.63
Cc1cc(OC(C)C(=O)NCCCN2CCOCC2)ccc1Cl (stereo unspecified),0.06,1.34
CNC(=O)c1sc(NCc2ccccc2OC)nc1C,0.91,-0.15
CCCCNC(=O)C1c2ccccc2Oc2ccccc21,1.51,-0.05
Cc1ccc(NCc2nnc(SCC(=O)O)n2-c2ccc(C)cc2)cc1,0.7,-0.01
N#Cc1cccc2cnccc12,0.27,-0.94

In the list so far, these have a cyano group:
structure,KCNQ2 pot,KCNQ2 pot baseline
Cc1c(C(=O)N2CCOCC2)sc(NC(=O)Cc2ccccc2)c1C#N,0.51,0.07
CC1=C(n2nnc([N+](=O)[O-])n2)C(c2cccnc2)C(C#N)=C(N)O1 (stereo unspecified),0.57,-0.02
Cc1cc(-c2ccccc2)c(C#N)c(N)n1,0.33,1.41
N#Cc1cccc2cnccc12,0.27,-0.94

3 consecutive compounds out of the list so far, quoted:
structure,KCNQ2 pot,KCNQ2 pot baseline
COc1ccc(NS(=O)(=O)c2ccc(NC(=O)C3CCCO3)cc2)cc1 (stereo unspecified),0.45,-0.63
CCN(CC)S(=O)(=O)c1ccc(NC(=O)CO/N=C(\N)c2ccccc2)cc1,0.26,0.98
C=CCN1C(=O)CSC1=Nc1cccc(O)c1,0.15,-2.43

Next records follow.
structure,KCNQ2 pot,KCNQ2 pot baseline
Cc1ccc(Oc2ccc(C(=O)NCc3ccncc3)cc2)cc1,0.63,0.52
COc1ccc(CCN2C(=O)CSC2c2ccc(F)cc2)cc1 (stereo unspecified),0.53,0.48
COc1ccc(NC(=O)C(=O)N/N=C\c2ccc(CNC(=O)C(=O)Nc3ccc(C)c(C)c3)o2)c(OC)c1,0.53,0.08
Cc1ccc(OCC(=O)OCCN2C(=O)c3ccccc3C2=O)cc1C,0.24,-0.97
CC(C)CCNC(=O)CCc1nnc2ccc(N3CCC(C)CC3)nn12,1.23,0
CCOC(=O)N1CCN(C(=O)c2cnn3c(C(F)F)cc(-c4ccc(C)cc4)nc23)CC1,2.95,0.1
CC(C)OC(=O)c1ccc(COc2ccc3ccc(=O)oc3c2)o1,1.05,-0.05
Cc1ccc(S(=O)(=O)CC(=O)Nc2nnc(C(C)(C)C)s2)cc1,1.54,-0.24
CC(=O)Nc1nonc1-c1nc2ccccc2n1CCC(C)C,0.44,0.5
O=C(Cn1cnc2ccccc2c1=O)OCCCCN1C(=O)c2ccccc2C1=O,0.45,-1.08
CCC1(c2ccccc2)NC(=O)N(CC(=O)NC2(C#N)CCCCC2)C1=O (stereo unspecified),1.35,-1.11
COC(=O)c1cnn(-c2ccccc2)c1/C=N/NC(=S)Nc1ccccc1,0.28,-0.82
CCC(C)NC(=O)C1CCN(S(=O)(=O)c2cccc3nonc23)CC1 (stereo unspecified),0.59,-1.08
CC(=O)Nc1c(O)nc(SCc2ccccc2C#N)[nH]c1=O,0.09,1.07
O=C(COC(=O)/C=C/c1ccco1)NCCc1ccccc1,0.53,0.94
CC(=O)Nc1ccc(S(=O)(=O)N/N=C/c2ccc(C)s2)cc1,0.14,0.07
C/C(=C\C(=O)O)C(=O)Nc1nccs1,1.47,1.08
COCCCNC(=O)CCc1c(C)nc2c(c(C)nn2-c2ccccc2)c1C,0.81,-2.04
O=C(O)c1ccc(N/N=C/c2cn(Cc3ccc(F)cc3)c3ccccc23)cc1,0.01,-1.24
O=C(Nc1cccc(C(F)(F)F)c1)c1ccco1,2.16,-2.64
CN(C)c1ccc(CN(C(=O)c2cccs2)C2CCS(=O)(=O)C2)cc1 (stereo unspecified),0.89,-0.69
CCOc1cc(/C=C2/C(=O)ON=C2C)ccc1O,1,1.7
O=c1n(Cc2ccc(Cl)cc2)c2sc3c(c2c2ncnn12)CCCC3,1.3,-0.2
CCC(C)(C)NC(=O)C1c2ccccc2Oc2ccccc21,0.98,-0.53
O=C(NC(=S)Nc1cccc(C(F)(F)F)c1)c1ccc2nonc2c1,1.96,-0.01
O=C(Nc1cc(S(=O)(=O)N2CCOCC2)ccc1N1CCOCC1)c1cnccn1,0.37,-2.59
Cc1sc(-n2c(C)cc(C=O)c2C)c(C(=O)O)c1C,0.28,-0.75
CCOC(=O)C1CCN(S(=O)(=O)CCNC(=O)c2ccccc2)CC1,1.43,0.15
C=CCNC(=O)c1ccccc1NS(=O)(=O)c1ccc(OC)c(C(=O)N2CCOCC2)c1,0.32,2
Cc1nc2nc(-c3cccs3)[nH]c2cc1Br,1.14,1.42
CC(C)N(CC#CCC(O)(c1ccccc1)C1CCCC1)CCO (stereo unspecified),0.64,1.2
Cc1nnc(C)n1/N=C/c1cc(Br)cc(Br)c1O,10.9*,1.96*
O=C(COc1ccc(Br)cc1Br)NC1CCCC1,0.06,-0.37
NNC(=O)c1ccc(Cn2cc(Br)c(N)n2)cc1,0.73,1.93
O=C(Nc1cccc(S(=O)(=O)C(F)F)c1)c1ccc(S(=O)(=O)N2CCCC2)cc1,0.69,-1.06
COc1ccc(OC)c2sc(NC(=O)C(C)C)nc12,0.32,0.9
COc1cc(C(=S)N2CCC(C)CC2)ccc1O,0.18,0.58
S=C(NCc1ccco1)N1CCN(c2nc(-c3ccccc3)cs2)CC1,0.22,0.07
COc1ccc(OCC(O)Cn2cnc(-c3ccc(Br)cc3)c2)cc1 (stereo unspecified),0.15,-0.6
NC(=O)CSCc1nc2ccccc2s1,0.59,-0.45
COc1ccc(C(=O)CSc2nnc(CNc3ccc(C)cc3C)o2)cc1,1.22,-4.04
